# Screening data from PubChem.
# Anthrax LT inh = anthrax lethal toxin internalization inhibition; Cells, anthrax lethal toxin internalization, FRET ratio (460/530); hit rate 0.67% among 70,000; Potency, µM (titrated, usually from 40 µM), inactives show at the highest dose activity change, negative = inhibition, actives largely listed as inhibitors; active = well fitted falling ratio curve with the 530 nm signal flat; inconclusive = other ratio curves, or a change in one channel alone; inactive = flat curves in the ratio and both channels; the % refers to the ratio; further: on the % scale 0 is the no-effect control and ±100 the full control effect; nearly all actives have a fitted effect of over 50% in size; tested in ME-180 cells; beta-lactamase reporter
# Prx2 Sm inh = Schistosoma mansoni Prx2 inhibition. S. mansoni Prx2 activity coupled to TGR/GSH (TGR is thioredoxin glutathione reductase), NADPH fluorescence loss, qHTS; some inactives read as strong as hits. Potency, µM. hit rate 0.07% among 65,000; active means full or partial inhibition curve with a strong effect at the top dose; inconclusive means weaker partial or single-point curve; inactive means no accepted curve; further: series up to 57 µM; many of its hits are not listed in these tables
#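 Activity is read as the drop in NADPH fluorescence (365/450 nm), recorded every 30 sec for 8 min after H2O2 addition. Prx2 is coupled to TGR-driven NADPH oxidation through glutathione, in phosphate buffer pH 7.4.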
# * hit, by the source's call; u = inconclusive; x = no result given; & = joins results of further samples; [ ] = dose if it differs, or a comment. Potency means the concentration at half of the fitted maximal effect. These rows are one share of the data; rates above refer to the full screens.
SMILES,Anthrax LT inh,Prx2 Sm inh
COc1ccc(COC(=O)N/N=C2/C[C@@H](O)[C@@H](O)[C@@H]3[C@@H]4C(=O)N(c5cccc(Oc6ccccc6)c5)C(=O)[C@H]4CC[C@H]23)cc1,-12%[8 µM],x
c1ccc(-n2nnnc2Oc2cccc3cccnc23)cc1,14%,>57
COc1cc(C)cc(OC)c1/C=C\C(=O)O,3%[8 µM],>57
CC1Cc2ccccc2N1C(=O)COC(=O)C1=COCCO1 (configuration not stated),1%,>57
Cc1oc(C)c(C(=O)NCCCC(=O)O)c1C(=O)NCCCC(=O)O,3%,>57
Cc1ccc(-n2nnnc2SCCNS(=O)(=O)c2ccccc2)cc1C,u,>57
COc1ccc(CC(=O)OCc2cc3cccc(C)c3[nH]c2=O)cc1,4%,>57
OCn1ncn(-c2ccccc2)c1=S,-12%,>57
CC(=O)N1CCc2cc(S(=O)(=O)NC(CC(C)C)C(=O)Nc3ccc4c(c3)OCCO4)ccc21 (configuration not stated),-2%,>57
CCc1nc(-c2cc3ccc(C)cc3[nH]c2=O)no1,13%,>57
Cc1nc(CN2CCCCC2)c(O)c(=O)[nH]1,-7%[8 µM],>57
O=C(CCOc1ccccc1)NCc1ccccc1,u,>57
C[C@@H](CCc1ccc(O)cc1)NCCc1ccc(O)c(O)c1,u,>57&>57&>57
CC(C)Cc1ccc(C#N)c(SCC(N)=O)n1,12%,x
COc1ccc2c(c1)c(=O)cc(C)n2CC(=O)NCc1ccco1,-5%,>57
CCOC(=O)c1c(N)sc2c1CCC(C)C2 (configuration not stated),-6%,>57
CCCS(=O)(=O)Nc1c(C(=O)O)[nH]c2ccccc12,u,>57
CC(=O)N1CCC2(CCCN(c3cccc(-c4ccccc4)c3)C2)CC1,u,>57
COc1ccc(S(=O)(=O)N2CCCC(C(=O)NCc3ccncc3)C2)cc1 (configuration not stated),6%,>57
O=C(CS(=O)(=O)Cc1ccccc1)Nc1nc2ccccc2s1,-11%,>57
O=S(=O)(Cc1ccccc1)NCc1cccnc1,6%,>57
CCOC(=O)C1CCN(C(=O)c2cc(OCC)c(OCC)c(OCC)c2)CC1,16%,>57
CCOc1ccccc1N(CC(=O)NC1CCCC1)C(=O)CCCC(=O)Nc1ccccn1,u,>57
O=C(CCN1CCOCC1)Nc1ccc(F)cc1F,u,>57
Cc1ccc(NC(=O)CC2SC3=NCCN3C2=O)cc1 (configuration not stated),-2%,>57

# Further entries follow:
SMILES,Anthrax LT inh,Prx2 Sm inh
CC(C)(C)c1cc(Cc2ccccc2)[nH]n1,6%,>57
O=C(Nn1cnc2ccccc2c1=O)c1ccc(F)cc1Cl,-12%,>57
COc1ccc(N2CCN(Cc3cc(=O)oc4cc(-c5ccccc5)c(O)cc34)CC2)cc1,u,>57
COc1ccc(N2CCN(C(=O)c3ccc(S(=O)(=O)N4CCOCC4)cc3)CC2)cc1,-10%,>57
O=C(Nc1ccc2c(c1)OCO2)N1CCOCC1,u,>57
CCOc1ccc2c(c1)cc(CN(C(=O)CC)C1CCCCC1)c1nnnn12,-16%,>57
CCOC(=O)C1CCN(C(=O)C2CC(=O)N(c3ccc(C)cc3)C2)CC1 (configuration not stated),u,>57
COc1ccc(-c2nnc3ccc(SCC(=O)N4CCCCCC4)nn23)cc1OC,13%,>57
CC(NCC1(N2CCOCC2)CCCCC1)C(=O)N1CCc2ccccc21 (configuration not stated),6%,>57
CCO/C(C)=C1\C(=O)N(CC)c2ccccc21,-11%,>57
CC(=O)Nc1ccc(NC(=O)Cn2c(CC(=O)N3CCCC3)nc3ccccc32)cc1,-4%,>57
CC(=O)NC(C)C(=O)OCC(=O)Nc1ccc(Br)cc1 (configuration not stated),-18%,x
O=C(c1ccccc1)c1cn(CC(=O)N2CCOCC2)c2ccccc12,6%,>57
Cc1ccc(N(C(=O)Nc2ccccc2)C2=NCC(C)S2)cc1 (configuration not stated),x,>57
Cc1cccc(NC(=O)CC2SC(=NC3CCCCC3)NC2=O)c1 (configuration not stated),7%,>57
CCC(C)(C)NC(=O)CN(CC1CCCO1)C(=O)CCC(=O)Nc1nccs1 (configuration not stated),0%,>57
CC(=O)N1C(c2ccccc2)CC(=O)OC1c1ccc2c(c1)OCO2 (configuration not stated),-6%,>57
O=C(Nc1nnc(CCc2ccccc2)s1)C1CCCO1 (configuration not stated),11%,>57
Cc1nn(Cc2ccc(Cl)c(Cl)c2)c(C)c1NC(=O)c1cc(CC(C)C)on1,u,>57
O=c1c(O)c(-c2cccs2)oc2ccccc12,-6%,x
CC(=O)N1CCc2cc(S(=O)(=O)CCC(=O)O)ccc21,5%,>57
Cn1nnc(NCc2cc(Br)ccc2OCc2cccs2)n1,-13%,>57
CCN(CC)CCN1C(=O)c2oc3ccccc3c(=O)c2C1c1ccc(C)cc1 (configuration not stated),u,>57
COc1cc(NC2=CC(=O)CC(C)(C)C2)cc(OC)c1,-16%,x
c1ccccc1,2%&-1%,x

# The list continues:
SMILES,Anthrax LT inh,Prx2 Sm inh
CCC(=O)NCCN1CCN(C(=O)CC)CC1,6%,>57
CCOC(=O)N1CCC(NC(=O)CS(=O)(=O)Cc2nc(-c3ccc(C)cc3)oc2C)CC1,-8%,>57
CSc1nsc(SCC(=O)Nc2ccc3c(c2)OCCO3)n1,-1%,>57
C=CCNc1nc(NCCO)nc(N2CCCC2)n1,16%,>57
CCC1(CC)C(=O)C=CNC1=O,-1%[3.58 µM],>57
Cc1ccc(NC(=O)CSc2nnc(Cc3cccn3C)n2-c2ccc(F)cc2)c(C)c1,-23%,>57
O=C(O)CCSCC(=O)c1ccc2c(c1)OCCO2,6%,>57
Cc1sc2ncnc(Sc3nnc4sc5ccccc5n34)c2c1C,7%,>57
CCc1ccc(NC(=O)CSc2nnc(-c3ccccn3)n2C)cc1,1%,>57
O=C(c1cccc(C(F)(F)F)c1)N1CCN(C2CCCCC2)CC1,4%,>57
Cc1nnc(NC(=O)CSc2nc3c(c(=O)n2C)SC(C)C3)s1 (configuration not stated),22%,>57
CCOc1ccc(N2C(=O)CC(N(O)c3ccccc3)C2=O)cc1 (configuration not stated),-10%,>57
CCc1ccc(C2C(C#N)=C(N)SC(N)=C2C#N)cc1,13µM*,x
O=C(O)C1CC=CCC1C(=O)NCc1ccccc1 (configuration not stated),-6%,>57
COc1ncc2ncc(=O)n(Cc3ccc(F)cc3)c2n1,-9%,>57
O=C(c1cc(-c2cccc(O)c2)on1)N1CCc2ccccc2C1,u,x
O=[N+]([O-])c1cccc(C(F)(F)F)c1,3%,x
O=C(COC(=O)c1ccncc1)NCc1ccccc1,18%,>57
CC1(C)CC(=O)C(C(C2=C(O)CC(C)(C)CC2=O)c2cccnc2)C(=O)C1 (configuration not stated),-7%,>57
O=C(O)c1cc(O)c2c(c1)C(=O)c1cccc(O)c1C2=O,-4%,x
O=C(O)CCCCCNC(=O)c1cccc(Br)c1,-5%,x
Cc1ccc(-c2nn3c(C)nnc3c3ccccc23)cc1S(=O)(=O)NCc1ccco1,-15%,>57
CN(c1ccc(C(=O)NCc2ccccc2)cc1)S(C)(=O)=O,3%,>57
O=C(O)CC[P+](c1ccccc1)(c1ccccc1)c1ccccc1,0%[8 µM],>57
O=S(=O)(c1ccc(Cl)s1)N1CCN(c2ncccn2)CC1,8%,>57

# In a second layout: entries from further up
SMILES	Anthrax LT inh	Prx2 Sm inh
O=C(COC(=O)c1ccncc1)NCc1ccccc1	18%	>57
CC1(C)CC(=O)C(C(C2=C(O)CC(C)(C)CC2=O)c2cccnc2)C(=O)C1 (configuration not stated)	-7%	>57

# Later entries
SMILES,Anthrax LT inh,Prx2 Sm inh
Cn1c(N)c(C(=O)COC(=O)C2(c3ccc(F)cc3)CCCC2)c(=O)n(C)c1=O,u,>57
Cc1nn(-c2ccccc2)c2sc(C(=O)N3CCc4ccccc4C3)cc12,-7%,>57
CN1CCN(CCCNc2nc3ccccc3c3nc(-c4ccccc4)nn23)CC1,0%,>57
CC1(C)CC2CC(C)(CN2c2ncnc3ccccc23)C1 (configuration not stated),-14%,>57
Cc1ccc(C2CC(c3cccc(C)c3)n3nc(N)nc3N2)cc1 (configuration not stated),-16%,>57
O=C(CCc1c[nH]c2ccccc12)NCC1CCCO1 (configuration not stated),6%,>57
Cc1ccccc1-c1nc(Cc2ccc(Cl)cc2)no1,-20%,>57
CCN(CC)S(=O)(=O)N1CCC(C(=O)NC(C)CCc2ccccc2)CC1 (configuration not stated),-1%,>57
CC(=O)N1CCN=C1SCc1ccc(C)cc1,5%,>57
O=C(COc1cccc2cccnc12)Nc1nccs1,u,>57
Cn1c(=O)[nH]c(=O)c2c1nc(N1CCCCC1)n2CC(O)CN1CCCCC1 (configuration not stated),-17%,>57
CCC(=O)N1CC2(C)CN(C(=O)CC)CC(C)(C1)C2,-26%,>57
CCN1C(=O)C2C(c3cccc(F)c3)NC(C)(C(=O)OC)C2C1=O (configuration not stated),-6%,>57
COc1ccc(Cl)cc1CN1CCN(c2nc(C)cc(C)c2C#N)CC1,12%,>57
Cc1cccc(NC(=O)CSC(N)=O)c1C,9%,x
CCCc1c(O)nc(SCc2ccccc2)[nH]c1=O,-7%,>57
CCCCn1c(O)c(C(CC)=NCc2ccc3c(c2)OCO3)c(=O)[nH]c1=O,u,>57
CN=C(Nc1cc(C)nn1CCC#N)c1ccc(F)cc1,6%,>57
CCOC(=O)c1sc(NC(=O)c2cccnc2)nc1C,3%,>57
CCOc1ccc(C(F)(F)F)cc1NC(C)=O,-1%,>57
CCOC(=O)/C(C#N)=C1/C=CNC(=O)N1,9%,x
CC1Cc2ccccc2N1C(=O)CSc1nc2cc3c(cc2cc1C#N)OCO3 (configuration not stated),-12%,>57
CCC(C)(NC(=O)c1ccc(=O)[nH]c1)C(=O)NC1CCCC1 (configuration not stated),-5%,>57
COc1ccc(CCNC(=O)CSC2=Nc3ccccc3C3=NC(C(C)C)C(=O)N23)cc1OC (configuration not stated),-6%,>57
O=C(Nc1cccnc1)c1ccc(Br)s1,10%,>57

# Part of the list above, field by field:
CN=C(Nc1cc(C)nn1CCC#N)c1ccc(F)cc1
  Anthrax LT inh: 6% | Prx2 Sm inh: >57

CCOC(=O)c1sc(NC(=O)c2cccnc2)nc1C
  Anthrax LT inh: 3% | Prx2 Sm inh: >57

Cc1ccc(C2CC(c3cccc(C)c3)n3nc(N)nc3N2)cc1 (configuration not stated)
  Anthrax LT inh: -16% | Prx2 Sm inh: >57

CCCCn1c(O)c(C(CC)=NCc2ccc3c(c2)OCO3)c(=O)[nH]c1=O
  Anthrax LT inh: u | Prx2 Sm inh: >57

# Reprinted from the listing, 2 compounds:
SMILES,Anthrax LT inh,Prx2 Sm inh
COc1ccc(COC(=O)N/N=C2/C[C@@H](O)[C@@H](O)[C@@H]3[C@@H]4C(=O)N(c5cccc(Oc6ccccc6)c5)C(=O)[C@H]4CC[C@H]23)cc1,-12%[8 µM],x
c1ccc(-n2nnnc2Oc2cccc3cccnc23)cc1,14%,>57

# Next records follow:
SMILES,Anthrax LT inh,Prx2 Sm inh
CC(=O)Nc1ccc(S(=O)(=O)NCCC(=O)OCCN2C(=O)c3ccccc3C2=O)cc1,-7%,>57
O=C(OCCN=C1NS(=O)(=O)c2ccccc21)C1CC(=O)N(c2ccc(Cl)cc2)C1 (configuration not stated),2%,x
Cc1oc(-c2ccccc2F)nc1CS(=O)(=O)CC(=O)NCCCN1CCc2ccccc2C1,-6%,>57
O=C1c2ccccc2C(=O)N1CCc1nc2ccccc2c(=O)n1CCCn1ccnc1,29%,x
CC(C)C[C@H]1C(=O)N2CCC[C@@H]2[C@@]2(O)O[C@](NC(=O)[C@@H]3C=C4c5cccc6[nH]cc(c56)C[C@@H]4N(C)C3)(C(C)C)C(=O)N12,1%[3.58 µM],>57
O=C(CNS(=O)(=O)c1ccc(Br)s1)N1CCC(N2CCCCC2)CC1,2%,>57
O=c1cc(NCc2ccccc2)c2ccccc2o1,17%,>57
CCC(=NCCCO)c1c(O)n(-c2ccc(OC)cc2)c(=O)[nH]c1=O,9%,>57
O=C1CC(NC23CC4CC(CC(C4)C2)C3)C(=O)N1c1ccc2c(c1)OCO2 (configuration not stated),8%,>57
N=c1ccccn1CC(O)COc1ccccc1 (configuration not stated),0%,>57
CCOCCN1CCN(c2c(C)c(C)nc3cc(-c4cc(OC)cc(OC)c4)nn23)CC1,u,>57
CCn1nnc(NC(=O)c2ccc(-c3ccc(Cl)cc3)o2)n1,u,>57
O=C(O)c1ccc(NS(=O)(=O)c2ccsc2C(=O)O)cc1,0%,x
COc1ccc(OC)c(C2N(c3ccc(Cl)cc3)C(=O)C3CCCN32)c1 (configuration not stated),7%,>57
O=C(CN(CCc1ccccc1)C(=O)Cn1nnc(-c2cccs2)n1)NCc1ccco1,-6%,>57
Cc1ccc(-n2ncc3c(=O)n(CC(=O)N4CCCc5ccccc54)cnc32)cc1C,-6%,>57
NC(N)=Nc1ccc2[nH]c3c(c2c1)C[C@]1(O)[C@@H]2Cc4ccc(O)c5c4[C@]1(CCN2CC1CC1)[C@@H]3O5,u,>57
CC1(CCC(=O)OC2CCCCC2)OCCO1,4%[8 µM],>57
CC(=O)NCCNc1cc(-c2ccccc2C)ncn1,-3%,>57
